KCNQ2 block – KCNQ2 potassium channel inhibitors, primary screen, cell-based, CHO-K1, FluxOR thallium flux, B-score (AID 2156). Potassium voltage-gated channel subfamily KQT member 2 (Rattus norvegicus), O88943. 20 min; stronger effect = lower value; only compounds with negative scores are shown here; some inactives read as strong as hits. B-score at 10 µM. hit rate 1.1% among 310,000;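 active means fluorescence ratio B-score at most minus 3 library SDs, with starting brightness B-score within 2 library SDs, cut at about -5.5 in these data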
Target sequence (O88943 whole entry, looked up): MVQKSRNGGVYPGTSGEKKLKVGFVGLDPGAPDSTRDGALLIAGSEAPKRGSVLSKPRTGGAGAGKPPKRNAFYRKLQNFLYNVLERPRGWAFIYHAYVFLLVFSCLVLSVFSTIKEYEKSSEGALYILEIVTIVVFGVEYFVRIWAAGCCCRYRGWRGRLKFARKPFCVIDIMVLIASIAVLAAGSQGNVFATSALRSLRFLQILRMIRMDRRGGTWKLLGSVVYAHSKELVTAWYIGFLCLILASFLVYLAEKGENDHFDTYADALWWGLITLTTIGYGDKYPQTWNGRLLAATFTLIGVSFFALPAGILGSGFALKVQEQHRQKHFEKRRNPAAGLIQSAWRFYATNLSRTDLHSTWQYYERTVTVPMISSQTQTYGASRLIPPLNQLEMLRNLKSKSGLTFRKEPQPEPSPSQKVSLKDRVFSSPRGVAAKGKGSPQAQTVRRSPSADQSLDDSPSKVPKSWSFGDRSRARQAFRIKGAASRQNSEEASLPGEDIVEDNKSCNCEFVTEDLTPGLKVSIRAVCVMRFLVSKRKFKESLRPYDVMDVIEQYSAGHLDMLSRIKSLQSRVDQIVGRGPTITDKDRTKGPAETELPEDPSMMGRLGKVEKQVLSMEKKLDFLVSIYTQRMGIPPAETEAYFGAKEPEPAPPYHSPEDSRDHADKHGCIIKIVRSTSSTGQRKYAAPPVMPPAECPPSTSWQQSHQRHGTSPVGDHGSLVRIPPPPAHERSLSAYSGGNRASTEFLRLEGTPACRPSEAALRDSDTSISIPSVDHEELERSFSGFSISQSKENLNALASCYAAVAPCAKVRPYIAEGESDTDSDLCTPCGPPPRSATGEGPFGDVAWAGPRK
KCNQ2 block baseline – also measured in KCNQ2 block; calls as there; B-score; measured here: initial fluorescence intensity artifact check;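 brightness before thallium and not channel activity; 0 = typical well and far values either way flag optical interference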
* marks the source's active call; other numbers are inactive results; i = inactive.

smiles | KCNQ2 block | KCNQ2 block baseline
CC(C)c1ccc(NC(=O)[C@@H]2CCC(=O)N2C2OC(=O)c3ccccc32)cc1 (stereo partly drawn) | i | -1.5
COc1cccc(/C=N/NC(=O)C(=O)NCc2cccnc2)c1 | i | 2.6
Cc1cccc(C(=O)N2CCCCCC2)c1 | i | 0.23
CC(=O)N1CCN(C(=O)c2cc(=O)c3ccccc3o2)CC1 | i | 2.1
COc1ccccc1NC(=O)c1ccc(COc2ccccc2OC)cc1 | i | -1.6
O=C(NN=C(Cc1ccccc1)Cc1ccccc1)c1ccccc1F | i | 1.9
Cc1oc(/C=N/NC(=O)CN(c2ccccc2Cl)S(C)(=O)=O)cc1Br | i | 0.12
CN(C)N1C(N)=C(C#N)C(c2cccc3ccccc23)C2=C1CC(c1ccccc1)CC2=O (stereo not drawn) | i | -1.1
O=C(ON=C1CCN(c2ccc([N+](=O)[O-])cc2)CC1)c1ccccc1 | i | 0.59
COc1cccc(OCCOc2cccc(/C=N/n3cnnc3)c2)c1 | i | 1.2
CCOC(=O)C1CCN(C(=O)Cc2ccccc2OC)CC1 | i | 0.61
Cc1cc(C(=O)NC2CCCc3ccccc32)no1 (stereo not drawn) | i | -0.16
C=CCn1c(SCC(=O)Nc2ccc(Cl)cn2)nnc1C1CC1 | i | 0.33
COc1ccccc1N(C(=O)Cn1nnc2ccccc21)C(C(=O)NCc1ccco1)c1ccc(C)o1 (stereo not drawn) | i | 0.47
CO/N=C/c1ccc(N2CCN(C(=O)c3cccc(Cl)c3)CC2)c([N+](=O)[O-])c1 | i | 0.36
O=C(CN1C2=NCCCN2c2ccccc21)c1cccs1 | i | 0.06
COc1ccc(-c2nc3c4ccccc4ccn3c2CN2CCCCC2)cc1OC | i | -0.77
CCSc1nc(-c2ccc(OC)cc2)ccc1C#N | i | 0.89
CCOc1c(CNCCCSc2nc(C)cc(C)n2)cccc1OC | i | -1.6
Cc1cc2nc(-c3ccccc3)cc(=O)n2[nH]1 | i | 1.1
CCc1ccc(N(C(=O)c2snc(C(N)=O)c2N)C(C(=O)NC2CCCC2)c2ccncc2)cc1 (stereo not drawn) | i | -1.2
CCN1CCc2c(sc(NC(=S)NC(=O)c3ccccc3)c2C#N)C1 | i | 1.4
OC(CN1CCN(c2ccc(C(F)(F)F)cn2)CC1)c1ccccc1 (stereo not drawn) | i | -0.92
C#CCOCCOCCOCCNc1nc(N2CCN(C(=O)[C@H](CCCCN)n3cc([C@@H](N)C(C)CC)nn3)CC2)nc(N2CCN(C(=O)[C@H](Cc3ccc(O)cc3)n3cc([C@@H](N)CC(C)C)nn3)CC2)n1 (stereo partly drawn) | i | 0.25
Cc1ccc(S(=O)(=O)N2CCCC2C(=O)OCc2nc3ccccc3s2)cc1 (stereo not drawn) | i | -0.63
O=S(=O)(c1ccc(Cl)cc1)N1CCN(C2CCN(Cc3ccccc3)CC2)CC1 | i | 1.1
Cc1ccc(C(=O)Oc2oc(-c3ccccc3)nc2C=Nc2ccc(N(C)C)cc2)cc1 | i | 0.06
COc1cc(CN2CCC(n3nccc3NC(=O)CCCc3ccccc3)CC2)ccc1F | i | 0.75
Cc1[nH]n(-c2ccccc2)c(=S)c1C=NCCCN=Cc1c(C)[nH]n(-c2ccccc2)c1=S | i | -0.17
COc1ccccc1CCNC(=O)C1CCCO1 (stereo not drawn) | i | 0.07
Cc1ccc(-c2ccc(=O)n(CC(=O)NCc3ccc(F)cc3)n2)cc1 | i | 0.12
Cc1ccc(Cl)cc1N1CCN(C(=O)c2cn(C)c(=O)c3c2c2ccccc2n3C)CC1 | -7.5* | 1.2*
CN(C)c1ncc(S(=O)(=O)c2ccc(Cl)cc2)c(-c2ccccc2)n1 | i | -0.79
COc1cccc(NC(=S)N2CCC(Cc3ccccc3)CC2)c1 | i | 0.06
CC(=O)N(c1ccc2oc(=O)sc2c1)S(=O)(=O)c1ccc(C(=O)O)cc1 | i | 0.34
CCCCN1C(=O)C(NC(=O)c2cccnc2)(C(F)(F)F)C2=C1CC(C)(C)CC2=O (stereo not drawn) | i | 1.1
Cc1cc(NC(=O)c2cc(-c3ccncc3)nc3c(C)cccc23)no1 | i | 0.37
CC1CCCC(C)N1/N=C/c1cccc([N+](=O)[O-])c1 (stereo not drawn) | i | 2.1
COc1ccc(CNC(=O)CN(C(=O)c2csnn2)c2ccccc2F)cc1 | i | 2
COc1ccc(OCC(=O)OC(C)CN2CCOCC2)cc1 (stereo not drawn) | i | -0.05
COc1ccc(Cn2c(CCC(=O)NCCC(C)C)nc3ncccc3c2=O)cc1 | i | 0.1
CN(C)c1ccc(-c2nn3c(-c4ccc(Cl)cc4)nnc3s2)cc1 | i | 0.75
Cn1c(=O)n(C)c2cc(NC(=O)C(F)(F)F)ccc21 | i | 1.3
O=C(CSc1nc2ccncc2[nH]1)Nc1ccccc1C(F)(F)F | i | 2.2
Cc1cc(C)c(C#N)c(N2CCN(c3ccc(F)cc3)CC2)n1 | i | -0.09
Cc1ccc(S(=O)(=O)N2CCCCCC2)cc1C(=O)Nc1cccnc1 | i | -0.41
O=C(CSc1nnc(NC(=O)C2CC2)s1)Nc1ccc(F)cc1 | i | 2
C=CCn1c(COc2ccc(Cl)cc2)nnc1SCc1ccc(C#N)cc1 | i | -0.86
CCCn1c(NC(=O)c2cccc(S(=O)(=O)N3CCCC3)c2)nc2ccccc21 | i | 0.23
CN(C)S(=O)(=O)N1CCC(Oc2ccc(C(=O)NCCc3cscn3)cc2)CC1 | i | -1.9

Further records.
smiles | KCNQ2 block | KCNQ2 block baseline
CO/N=C\Cc1oc(=O)c(NC(=O)c2ccccc2)cc1C(=O)OC | i | 1.2
C=CCN=C(NC#N)SCC(=O)NCc1ccccc1 | i | -0.46
CCCCn1c(N)c(N(CC(C)C)C(=O)c2cnccn2)c(=O)[nH]c1=O | i | -0.3
CCC(=O)c1cn(CC(=O)NCc2cccnc2)c2ccccc12 | i | -0.38
CCCCNC(=O)/C=C/c1ccc(OC)c(Br)c1 | i | -0.86
CCOC(=O)c1c(NC(=O)c2ccccc2C)sc2c1CC(C)(C)OC2 | i | 0.84
COC(=O)c1ccc(COc2ncnc3ccccc23)o1 | i | -1.5
O=C(Nn1c(SCc2ccccc2F)nc2ccsc2c1=O)c1ccccc1 | -6.4* | 0.05*
CCN(CC)S(=O)(=O)c1ccc2c(c1)nc(SCC(=O)N(C)C1CCS(=O)(=O)C1)n2CC (stereo not drawn) | i | 0.82
CS(=O)(=O)Nc1ccccc1N=C(c1ccccc1)c1ccccc1 | i | -0.14
CC(=O)CSc1cc(-c2ccccc2)nc2ncnn12 | i | 0.83
O=C(CNC(=O)c1ccc(Cl)cc1)c1ccc(Br)cc1 | i | -0.19
Cc1ccc(S(=O)(=O)NCCNC(=O)c2cc(OCC(F)(F)F)ccc2OCC(F)(F)F)cc1 | i | -0.58
N#Cc1ccc(OCC(=O)OCC(=O)Nc2cc(C(F)(F)F)ccc2N2CCOCC2)cc1 | i | 1.2
COc1ccc(/C=C/C(=O)NC(=S)NNC(=O)c2cnccn2)cc1 | i | -0.11
CC(=O)NC1(NC(C)=O)CCN(C)CC1 | i | 0.34
CCC(C)(C)n1nnnc1C(C(C)C)N(CCCO)Cc1cc2cc(C)ccc2[nH]c1=O (stereo not drawn) | i | -0.03
COc1ccc(C(CCN)c2ccc3c(c2)OCO3)cc1 (stereo not drawn) | i | -0.83
COc1cc(OC)cc(C(=O)Nc2ccc(C(=O)NCC3CCCO3)cc2)c1 (stereo not drawn) | i | -0.7
Cc1cc(C)c(NC(=O)CN2CCOCCOCCOCCOCC2)c(C)c1 | i | 0.21
COC(=O)C1=C(C)N(C)C(=O)NC1c1ccc(O)c(OC)c1 (stereo not drawn) | i | -2.5
COC(=O)c1ccccc1NC(=O)N1c2ccccc2Sc2ccccc21 | i | 1
O=c1c2ccccc2nc(SCc2nnc(-c3ccccc3)o2)n1-c1ccccc1 | i | 1
CNC(=O)CSc1nnnn1-c1ccc(C)cc1C | i | 0.01
COCc1cc(C(C)=O)ccc1OCC(=O)Nc1ccc(NC(C)=O)cc1 | i | 0.06
Cc1cccc(OCC(=O)N/N=C\c2cccn2C)c1C | i | -0.63
CC(C)(C)c1nc(SCC(=O)N2CC(=O)Nc3ccccc32)c2ccccc2n1 | i | -0.04
C=CCN1C=C2C(=O)C(C)(OC(=O)CCC(=O)OC)C(=O)C(Br)=C2C=C1c1ccc(OC)cc1 (stereo not drawn) | i | 2.6
O=C(NCC(=O)N1CCN(c2ncc(C(F)(F)F)cc2Cl)CC1)c1ccc(Br)o1 | i | -0.08
CCOC(=O)c1cnc2sccn2c1=O | i | 0.22
c1ccc2c(Cn3ccnc3)cccc2c1 | i | 0.89
CCN(CCCNC(=O)c1ccc2c(c1)NC(=O)CN2C)c1cccc(C)c1 | i | -1.6
Brc1ccc(-c2ncc3ccccn23)cc1 | i | 1.1
CC(C)CCOP(=O)(c1ccccc1)c1ccccc1 | i | -1.9
Cn1c(N)c(S(=O)(=O)NCc2ccc(F)cc2)c(=O)n(C)c1=O | i | 0.99
CCCN(CC1CC1)C(=O)COC(=O)c1ccc2c(c1)C(=O)N(c1ccc(OCC)cc1)C2=O | i | -2.2
Fc1cccc(Nc2nc(-c3ccncc3)nc3ccccc23)c1 | i | 0.33
N#Cc1ccccc1NC(=O)CSc1ccc([N+](=O)[O-])cn1 | i | -0.72
COc1ccccc1C(=O)NCC(=O)OCc1csc(-c2ccccc2)n1 | i | 0.17
CON1C(=O)C(=O)N(OC)C(C)(C)C1(C)C | i | -0.59

Three entries from above, sorted by the value under KCNQ2 block baseline, smallest number first.
smiles | KCNQ2 block | KCNQ2 block baseline
CCCN(CC1CC1)C(=O)COC(=O)c1ccc2c(c1)C(=O)N(c1ccc(OCC)cc1)C2=O | i | -2.2
CC(C)CCOP(=O)(c1ccccc1)c1ccccc1 | i | -1.9
CCN(CCCNC(=O)c1ccc2c(c1)NC(=O)CN2C)c1cccc(C)c1 | i | -1.6

(listing goes on)
smiles | KCNQ2 block | KCNQ2 block baseline
CN(Cc1ccncn1)C(=O)C1CCC(=O)N(Cc2cccc(C(F)(F)F)c2)C1 (stereo not drawn) | i | 0.47
CC(=O)NC(CC(=O)N(C)C1CCCCC1)c1ccccc1 (stereo not drawn) | i | 0.84
Cc1ccc(S(=O)(=O)N(CC(=O)N2CCOCC2)CC(=O)N2CCOCC2)cc1 | i | 0.01
COc1cc(OC)cc(C(=O)NC(C)c2ccc(Br)cc2)c1 (stereo not drawn) | i | 0.08
CCC(C)(C)c1ccc(OCCCC[n+]2cccc(C)c2C)c(C(C)(C)CC)c1 | i | 0.6
Cc1cc(NC(=O)c2cccc(S(=O)(=O)N3CCCCCC3)c2)n(-c2ccccn2)n1 | i | -1.9
COc1cc(S(=O)(=O)NCCCN2CCOCC2)ccc1Cl | i | 0.01
Cc1c(C(=O)NCc2ccccn2)oc2ccccc12 | i | 0.13
C=CCOc1ccccc1CNCCCN1CCOCC1 | i | 0.23
Cc1ccc(-c2nc(CS(=O)CC(=O)NCc3ccccn3)c(C)o2)cc1 (stereo not drawn) | i | 1.7
COc1ccc(CC(=O)NNC(=O)c2cccs2)cc1 | i | -0.74
COC(=O)c1ccc(CSc2nc3cc(Cl)ccc3s2)o1 | i | 1.7
CCc1nc2ccccc2c(C(=O)O)c1C | i | -0.64
COC(=O)C1=C[C@@H](C(=O)OC)[C@@H]2C3=C(C(=O)[C@@]2(C)NC(=O)c2ccccc2)[C@H](c2ccccc2)n2c(=O)n(-c4ccccc4)c(=O)n2[C@@H]3C1 | i | 2.5
CNC(=S)N/N=C(\C)c1ccc(C)c(C)c1 | i | -0.72
Cc1nc2ccccc2c2c1C(=O)N(CCC1=CCCCC1)C2=O | i | -1.4
Cc1ccc(O)c(/C=N/NC(=O)CN2CCCC2)c1 | i | 0.58
CCCCC1OC23CCCCC2C(C#N)(C#N)C1(C#N)C(=N)O3 (stereo not drawn) | i | -0.07
O=C(c1ccccc1Br)N1CCN(Cc2ccc3c(c2)OCO3)CC1 | i | 1.6
COc1ccc(CCNC(=O)c2cc3c(=O)n(C)c4ccccc4c3n2C)c(OC)c1 | i | 1
O=C(Nc1ccc(F)cc1)N1CCn2c(nc3ccccc32)C1 | i | 1
Fc1ccc(C2c3[nH]c4ccccc4c3CCN2Cc2cccn2-c2ncccn2)cc1 (stereo not drawn) | i | -0.48
CC(=O)c1cc(NC(=O)c2ccc([N+](=O)[O-])cc2)c(=O)oc1C | i | 0.32
CCCNC(=O)Cn1nc(C)n2c(cc3cc(F)ccc32)c1=O | i | -1.9
CCOc1ccc(NC(=O)c2cccnc2SC)cc1 | i | 0.13
COC(=O)c1cc(S(=O)(=O)N2CCN(c3cc(C)ccc3C)CC2)c[nH]1 | i | -0.89
Cc1ccc(SCCNC(=O)c2ccccc2F)cc1 | i | 0.03
CN(CCOc1cccc(C(F)(F)F)c1)Cc1ccccc1 | i | 1.4
COc1ccc(C(=O)COC(=O)CN2C(=O)c3ccccc3C2=O)c(OC)c1 | i | 0.15

Entries shown so far that have a cyano group:
smiles | KCNQ2 block | KCNQ2 block baseline
CN(C)N1C(N)=C(C#N)C(c2cccc3ccccc23)C2=C1CC(c1ccccc1)CC2=O (stereo not drawn) | i | -1.1
CCSc1nc(-c2ccc(OC)cc2)ccc1C#N | i | 0.89
CCN1CCc2c(sc(NC(=S)NC(=O)c3ccccc3)c2C#N)C1 | i | 1.4
Cc1cc(C)c(C#N)c(N2CCN(c3ccc(F)cc3)CC2)n1 | i | -0.09
C=CCn1c(COc2ccc(Cl)cc2)nnc1SCc1ccc(C#N)cc1 | i | -0.86
C=CCN=C(NC#N)SCC(=O)NCc1ccccc1 | i | -0.46
N#Cc1ccc(OCC(=O)OCC(=O)Nc2cc(C(F)(F)F)ccc2N2CCOCC2)cc1 | i | 1.2
N#Cc1ccccc1NC(=O)CSc1ccc([N+](=O)[O-])cn1 | i | -0.72
CCCCC1OC23CCCCC2C(C#N)(C#N)C1(C#N)C(=N)O3 (stereo not drawn) | i | -0.07

Screening results from PubChem.

This is a subset; count on the stated rates, not on these rows.
